AF4-AF9 inh: inhibitors of human MLL-AF4/AF9 interaction | P42568 | AlphaScreen, biotin-AF4 peptide binding to FLAG-AF9 | inhibition, % at 10 µM | hit rate 0.47% among 350,000 | AID 651704;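 active = every replicate reaching a set inhibition limit, whatever the replicate mean, cut at about 25% in these data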;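 note: 0% = plate neutral control median and 100% = total signal loss; the record names both 10 and 1 µM as test concentration; the first replicate is given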
Target sequence (P42568 whole entry, looked up): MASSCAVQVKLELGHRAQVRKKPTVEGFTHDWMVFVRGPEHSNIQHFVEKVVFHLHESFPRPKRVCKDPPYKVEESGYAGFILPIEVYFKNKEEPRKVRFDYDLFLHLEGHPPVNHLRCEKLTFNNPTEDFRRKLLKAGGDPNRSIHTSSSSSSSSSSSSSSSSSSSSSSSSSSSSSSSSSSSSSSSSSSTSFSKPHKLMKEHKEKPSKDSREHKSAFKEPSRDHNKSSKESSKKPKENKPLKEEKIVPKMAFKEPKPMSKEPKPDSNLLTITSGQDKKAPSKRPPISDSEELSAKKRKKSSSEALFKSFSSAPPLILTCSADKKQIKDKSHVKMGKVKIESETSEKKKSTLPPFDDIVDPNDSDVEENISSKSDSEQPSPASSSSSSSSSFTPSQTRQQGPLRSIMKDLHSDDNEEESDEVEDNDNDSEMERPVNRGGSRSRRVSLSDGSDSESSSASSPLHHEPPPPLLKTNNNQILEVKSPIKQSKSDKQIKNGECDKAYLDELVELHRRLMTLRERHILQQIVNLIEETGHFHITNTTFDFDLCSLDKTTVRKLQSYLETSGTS
Numbers without * were called inactive; & = joins results of further samples.

Sample of the layout, six compounds:
SMILES	AF4-AF9 inh
CN1OC[C@@H]2CN(S(=O)(=O)c3ccccc3)[C@H](c3ccccc3Br)C[C@@H]21	-4.7
CCC1Cc2[nH]c(=S)[nH]c(=O)c2C(c2ccc(F)cc2)O1 (stereo not given)	-0.1
CO[C@H]1CN(C)C(=O)c2cc(NC(=O)C3CC3)ccc2OC[C@@H](C)N(C(=O)C2CCCCC2)C[C@@H]1C	-3.5
COc1ccc(NC(=O)Nc2ccc3c(c2)C(=O)N([C@H](C)CO)C[C@H](C)[C@H](CN(C)C(=O)CCCN(C)C)OCCCC[C@H](C)O3)cc1	5.9
O=C(O)C(=Cc1cc2c(cc1[N+](=O)[O-])OCO2)c1cc2c(cc1Br)OCO2	-6.0
CC(C)COC(=O)N1CCCCC1c1cc(C(=O)NCc2ccccc2)no1 (stereo not given)	-2.6

The whole of this part, repeating the preview:
SMILES	AF4-AF9 inh
CN1OC[C@@H]2CN(S(=O)(=O)c3ccccc3)[C@H](c3ccccc3Br)C[C@@H]21	-4.7
CCC1Cc2[nH]c(=S)[nH]c(=O)c2C(c2ccc(F)cc2)O1 (stereo not given)	-0.1
CO[C@H]1CN(C)C(=O)c2cc(NC(=O)C3CC3)ccc2OC[C@@H](C)N(C(=O)C2CCCCC2)C[C@@H]1C	-3.5
COc1ccc(NC(=O)Nc2ccc3c(c2)C(=O)N([C@H](C)CO)C[C@H](C)[C@H](CN(C)C(=O)CCCN(C)C)OCCCC[C@H](C)O3)cc1	5.9
O=C(O)C(=Cc1cc2c(cc1[N+](=O)[O-])OCO2)c1cc2c(cc1Br)OCO2	-6.0
CC(C)COC(=O)N1CCCCC1c1cc(C(=O)NCc2ccccc2)no1 (stereo not given)	-2.6
CCC(=O)N1[C@H](CO)[C@H](c2ccccc2)[C@H]1CN(CC1CCC1)S(C)(=O)=O	-3.7
O=C(C1CCC1)N1CC2(C1)[C@@H](c1ccccc1)[C@@H](CO)N2CCC(F)(F)F	1.2
COc1ccccc1NC(=O)N1C[C@H](O)COC[C@H]2O[C@H](CC(=O)NCCc3ccccc3)CC[C@@H]21	-12
O=C(Nc1ccccc1)C1=C[C@@H](c2ccc3c(c2)Cc2ccccc2-3)C[C@@H](OCCCCO)O1	6.9
CCS(=O)(=O)N1CC2(C1)[C@H](c1ccccc1)[C@H](CO)N2Cc1ccc(F)cc1	0.7
O=C(C1CCCC1)N1CC(=O)N2[C@@H](CO)[C@H](c3ccc(C#CCc4ccccc4)cc3)[C@@H]2C1	0.7
CC(C)(C)[S@@](=O)N1Cc2cc(C(=O)NCCc3ccncc3)nc(-c3cccc(-c4cccc(C#N)c4)c3)c2[C@H]1CCO	0.0
COCC(=O)N1C[C@H]2[C@@H](c3ccccc31)[C@H](CO)N2C(=O)c1ccncc1	-1.3
COc1ccccc1S(=O)(=O)N(C)C[C@H]1Oc2ncc(-c3ccc(C)cc3)cc2C(=O)N([C@@H](C)CO)C[C@H]1C	-5.2
O=C(CC(F)(F)F)N1C[C@@H]2[C@H](c3ccccc31)[C@H](CO)N2C(=O)c1cccnc1	-1.2
C[C@@H]1CN([C@H](C)CO)C(=O)Cc2cc(NC(=O)Nc3ccc4c(c3)OCO4)ccc2O[C@@H]1CN(C)Cc1ccc2c(c1)OCO2	14
C[C@H](CO)N1C[C@H](C)[C@H](CN(C)C(=O)CC2CC2)Oc2cc(C#CC3CC3)ccc2S1(=O)=O	1.1
Cc1ccc(NC(=O)COC(=O)CCC(=O)c2cccs2)c(Br)c1	-0.1
CN(C)S(=O)(=O)Nc1ccc(Cc2ccncc2)cc1	0.0

An excerpt of these results, as labelled records.
> O=C(CC(F)(F)F)N1C[C@@H]2[C@H](c3ccccc31)[C@H](CO)N2C(=O)c1cccnc1
  AF4-AF9 inh: -1.2

> C[C@@H]1CN([C@H](C)CO)C(=O)Cc2cc(NC(=O)Nc3ccc4c(c3)OCO4)ccc2O[C@@H]1CN(C)Cc1ccc2c(c1)OCO2
  AF4-AF9 inh: 14

An excerpt of these results, bar-delimited:
mol | AF4-AF9 inh
O=C(CC(F)(F)F)N1C[C@@H]2[C@H](c3ccccc31)[C@H](CO)N2C(=O)c1cccnc1 | -1.2
C[C@@H]1CN([C@H](C)CO)C(=O)Cc2cc(NC(=O)Nc3ccc4c(c3)OCO4)ccc2O[C@@H]1CN(C)Cc1ccc2c(c1)OCO2 | 14

Carrying on.
SMILES	AF4-AF9 inh
COc1ccc(CN(C)C[C@@H]2Oc3ccc(NC(=O)Cn4cnnn4)cc3C(=O)N([C@@H](C)CO)C[C@H]2C)cc1	0.1
C/C=C/c1ccc([C@H]2[C@H](CO)N3C(=O)CN(C(=O)Cc4cccnc4)C[C@@H]23)cc1	5.7
COc1ccccc1-c1csc(C(NC(C)=O)c2ccc(F)c(F)c2)n1 (stereo not given)	-3.6
CCS(=O)(=O)Nc1ccc2c(c1)C(=O)N(C)C[C@@H](OC)[C@H](C)CN(C(=O)C1CCC1)[C@H](C)CO2	0.0
CC1CCN(C(=O)c2ncn3c2C(=O)NC[C@H]3C)CC1	-0.6
C[C@@H]1CN([C@@H](C)CO)C(=O)c2cc(C#C[C@@H](C)O)cnc2O[C@@H]1CN(C)C(=O)c1ccncc1	-1.7
CCN(CC(=O)NCc1cccs1)C(=O)c1cccc(S(=O)(=O)N(CC)c2ccccc2)c1	3.9
C[C@@H]1CN([C@@H](C)CO)C(=O)c2cc(NC(=O)Nc3ccc(C(F)(F)F)cc3)ccc2O[C@@H](C)CCCCO[C@H]1CN(C)Cc1ccc(C(=O)O)cc1	0.0
CC[C@@H]1CC2=C(C(=O)OC(C)(C)O2)[C@H](c2ccc(F)cc2)O1	-1.6
CCCC#Cc1ccc2c(c1)O[C@H](CN(C)Cc1cncnc1)[C@@H](C)CN([C@H](C)CO)S2(=O)=O	6.8
CN1C[C@H]2[C@@H](c3ccccc31)[C@@H](CO)N2Cc1ccccc1F	-0.3
Cc1cc(C(=O)Nc2cccc3c2O[C@H](CN(C)C)[C@H](C)CN([C@H](C)CO)C3=O)n(C)n1	-2.8
CC(C)C[C@@H]1O[C@H](CCc2ccccc2)CC2=C1C(=O)OC(C)(C)O2	-4.1
O=C(Nc1nc2ccc(F)cc2s1)c1ccc([N+](=O)[O-])o1	-3.2
C[C@@H]1CN([C@H](C)CO)C(=O)c2cc(-c3ccc(F)cc3)cnc2O[C@@H]1CN(C)CC1CCCC1	-4.2
C[C@H]1CN([C@@H](C)CO)C(=O)c2cccc(NC(=O)C3CCOCC3)c2O[C@H]1CN(C)C(=O)Nc1ccc(F)cc1	-2.2
O=C(C[C@H]1CC[C@@H](NS(=O)(=O)c2ccc(F)cc2)[C@H](CO)O1)N1CCN(c2ccccc2)CC1	1.1
COc1ccc(CN(C)C(=O)[C@H]2O[C@@H](n3ccc(N)nc3=O)[C@H](O)[C@@H]2O)cc1OC	-0.8
O=C(Nc1ccc(F)c(Cl)c1)c1csc([C@H]2C[C@H](O)[C@@H](CO)O2)n1	-2.1
C[C@H](CO)N1C[C@H](C)[C@H](CN(C)C(=O)Nc2cccc3ccccc23)OCCCC[C@H](C)Oc2ccc(NC(=O)Cc3ccccc3)cc2C1=O	-5.2
CN(C)C(=O)C[C@@H]1CC[C@@H](NC(=O)C2CCC2)[C@H](CO)O1	-0.2
CO[C@@H]1CN(C)C(=O)c2cc(NS(C)(=O)=O)ccc2OC[C@@H](C)N(C(=O)C2CCCCC2)C[C@H]1C	-0.7
C[C@@H]1CN([C@H](C)CO)C(=O)Cc2cc(NC(=O)Cc3cn(C)c4ccccc34)ccc2O[C@@H]1CN(C)Cc1ccc(C(F)(F)F)cc1	-5.9
COc1ccc2c3c([nH]c2c1)[C@H](CO)N(Cc1cc(F)ccc1F)CC31CCN(C(=O)C2CCC2)CC1	0.8
C[C@@H]1CN([C@@H](C)CO)C(=O)c2cccc(NC(=O)NC3CCCCC3)c2O[C@H]1CN(C)Cc1ccc(C(=O)O)cc1	-13
C[C@@H]1CCCCO[C@H](CN(C)C(=O)CCCN(C)C)[C@@H](C)CN([C@@H](C)CO)C(=O)c2cc(NC(=O)Nc3ccccc3)ccc2O1	7.6
C[C@@H]1CN([C@@H](C)CO)C(=O)c2cc(NC(=O)CCCN(C)C)ccc2O[C@@H]1CN(C)Cc1ccccc1	-4.2
C[C@@H]1CCCCO[C@@H](CN(C)Cc2ccc(C(F)(F)F)cc2)[C@@H](C)CN([C@H](C)CO)C(=O)c2cc(NS(=O)(=O)c3ccc(F)cc3)ccc2O1	-7.5
Cc1ccc(S(=O)(=O)N(C)C[C@@H]2Oc3ncc(-c4ccc(F)cc4)cc3C(=O)N([C@H](C)CO)C[C@@H]2C)cc1	0.3
O=C(CC[C@H]1O[C@@H](n2cnc3c(NC(=O)c4ccccc4)ncnc32)[C@H](O)[C@@H]1O)NCc1ccc2c(c1)OCO2	-1.9
C[C@H](CO)N1C[C@H](C)[C@@H](CN(C)Cc2cccc(C(F)(F)F)c2)OCc2ccccc2-c2c(n(C)c3ccccc23)C1=O	2.6
CCCNC(=O)[C@@H]1[C@@H](CO)[C@@H]2Cn3c(ccc(-c4cccnc4)c3=O)[C@@H]2N1Cc1cocn1	-1.3
O=C(Nc1ccccc1)N1C[C@H]2[C@@H](c3ccccc31)[C@H](CO)N2C(=O)c1ccncc1	-0.5
CCC(=O)N(C)C[C@H]1Oc2cc(C#CCN(C)C)ccc2S(=O)(=O)N([C@@H](C)CO)C[C@H]1C	0.6
Cc1ccc(-c2csc(C(C)(O)c3cccc(F)c3)n2)cc1C (stereo not given)	-2.4
C[C@@H]1CN([C@@H](C)CO)C(=O)c2cc(/C=C/c3ccccc3)cnc2O[C@H]1CN(C)C(=O)c1cccnc1	-1.2
O=C(c1cccc(F)c1)N1CC[C@H]2[C@H](CO)Nc3ccc(-c4ccccc4F)cc3[C@H]21	14
CO[C@H]1CC[C@H]2CCOc3c(C#N)cccc3C(=O)N(C)C[C@H](OC)[C@@H](C)C(=O)N(C)C[C@H]1O2	4.1
C[C@H]1CN([C@@H](C)CO)C(=O)c2cc(-c3cccc(C#N)c3)cnc2O[C@@H]1CN(C)Cc1ccncc1	-2.1
CO[C@@H]1CN(C)C(=O)c2cc(NC(=O)C3CCCCC3)ccc2OC[C@@H](C)N(C(=O)c2ccccc2)C[C@@H]1C	-2.9
CCOC(=O)Cc1ccc(Nc2nc3cc(-c4ccccc4C)sc3c(=O)n2C)cc1	0.0
O=C(C1CCCC1)N1CC2(C1)[C@@H](c1ccccc1)[C@@H](CO)N2CCC(F)(F)F	-0.2
O=S1(=O)CC(N2CCN(c3ccccn3)CC2)CN1Cc1ccc(F)cc1 (stereo not given)	-3.3
CCOC(=O)C1(C)CCN1C(=O)CSc1ccccc1 (stereo not given)	0.6
C[C@@H]1CCCCO[C@H](CN(C)Cc2ccc(Cl)c(Cl)c2)[C@@H](C)CN([C@H](C)CO)C(=O)c2cc(NC(=O)Cc3ccccc3)ccc2O1	0.4
C[C@@H]1CN([C@H](C)CO)C(=O)c2cc(NC(=O)Nc3ccccc3)ccc2O[C@@H]1CN(C)C(=O)Nc1ccccc1	0.6
Cc1ccc(S(=O)(=O)N(C)C[C@H]2Oc3ccc(NC(=O)c4ccncc4)cc3C(=O)N([C@H](C)CO)C[C@H]2C)cc1	-2.2
CCC(=O)N1CCC1(C)C(=O)Nc1cc(OC)ccc1OC (stereo not given)	-2.8
CC(C)(O)C#Cc1ccc([C@H]2[C@@H](CO)N3CCCCN(C(=O)c4ccc(F)cc4)C[C@@H]23)cc1	-9.6
C[C@@H]1CN([C@H](C)CO)C(=O)Cc2cc(NC(=O)c3ccncc3)ccc2O[C@@H]1CN(C)Cc1ccc(-c2ccccc2)cc1	5.7

(cont.)
SMILES	AF4-AF9 inh
O=C(C[C@H]1C=C[C@@H](NC(=O)c2ccccc2)[C@H](CO)O1)Nc1ccc(-c2ccccc2)cc1	2.2
C[C@H](CO)N1C[C@H](C)[C@@H](CN(C)CC2CCCCC2)Oc2ncc(C#C[C@@H](C)O)cc2C1=O	-2.3
C[C@@H]1CN([C@@H](C)CO)C(=O)c2cc(NS(C)(=O)=O)ccc2O[C@@H](C)CCCCO[C@@H]1CN(C)C(=O)c1ccccc1	-8.1
CCC(=O)N1C[C@H](C)[C@@H](OC)CN(C)C(=O)c2ccc(NS(C)(=O)=O)cc2OC[C@@H]1C	-0.3
CC(=O)N1[C@@H]2c3ccc(C4=CCCC4)c(=O)n3C[C@H]1[C@H](CO)[C@H]2C(=O)N[C@@H](C)c1ccccc1	0.8
CCC(=O)N(C)C[C@@H]1Oc2ncc(C#CC(C)(C)O)cc2C(=O)N([C@@H](C)CO)C[C@H]1C	-2.8
O=C(O)c1cccc(-c2csc(C(O)c3cccc(Cl)c3)n2)c1 (stereo not given)	-4.3
C[C@H](CO)N1C[C@H](C)[C@H](CN(C)Cc2ccc(C(F)(F)F)cc2)Oc2ccc(NC(=O)C3CC3)cc2CC1=O	-3.1
Cc1noc(C)c1NC(=O)Nc1cccc2c1O[C@@H](CN(C)CC1CC1)[C@H](C)CN([C@@H](C)CO)C2=O	-3.1
CC(C)CC#Cc1ccc2c(c1)O[C@H](CN(C)Cc1ccc3c(c1)OCO3)[C@H](C)CN([C@H](C)CO)S2(=O)=O	1.8
CCCNC(=O)C[C@H]1CC[C@@H]2[C@@H](COc3ccc(NC(=O)Cc4ccccc4)cc3C(=O)N2C)O1	1.3
N#Cc1ccc2nc(-c3ccc(CN4CCC(n5cc(-c6ccccc6)[nH]c5=O)CC4)cc3)c(-c3ccccc3)nc2c1	1.3
Cc1noc(C)c1NC(=O)Nc1cccc2c1O[C@H](CN(C)CC1CC1)[C@H](C)CN([C@H](C)CO)C2=O	-1.2
CC(C)C#Cc1ccc([C@H]2[C@@H](CO)N(C(=O)C3CCC3)[C@H]2C#N)cc1	-1.4
CCCNC(=O)Nc1ccc2c(c1)OC[C@H](C)N(C)C[C@H](C)[C@@H](OC)CN(C)C2=O	-2.0
CC(C)NC(=O)N(C)C[C@@H]1Oc2ncc(C3=CCCCC3)cc2C(=O)N([C@@H](C)CO)C[C@H]1C	-13
C[C@@H]1CN([C@@H](C)CO)C(=O)c2cc(C3=CCCCC3)cnc2O[C@H]1CN(C)C(=O)c1cccnc1	-4.8
CC(C)COC(=O)N(C)C[C@@H]1OCc2cnnn2CCCC(=O)N([C@H](C)CO)C[C@H]1C	1.5&-1.5

Screening results deposited in PubChem by Broad Institute.

Some of the compounds tested. The share of hits here may be higher or lower than overall.
